PINK1 modulator: A Quantitative High throughput Screen to Identify Chemical Modulators of PINK1 Expression; Potency, µM (series often up to 76.6 µM), for inactives: at the top dose activation (PINK1 increase), actives largely listed as activators; AID 624263, 2012; 410,000 tested, 0.2% active; PINK1 immunofluorescence, high-content cytometry, 24 h; active = well fitted activation curve with a large enough effect; inconclusive = small, poorly fitted or top-dose-only effect; inactive = flat fitted curve, though single readings scatter; cell line not stated here;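 also: potency is read from the fitted curve at half-maximal effect; % of control where 0% means no effect; nearly all actives have a fitted effect of over 65% in size; a mitochondrial uncoupler was the plate control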
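Fluorescence from anti-PINK1 antibody, together with nuclear and cell stains, was scanned on a laser-scanning cytometer. Before staining, stable-line cells were incubated 24 hours with compounds at 5 concentrations; primary antibody 12 h at 10 degrees C.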
D2 PAM: Beta-Arrestin HTS for Positive Allosteric Modulators of the Human D2 Dopamine Receptor: Potentiators. DiscoveRx D2 beta-arrestin cells, luminescence, 90 min; 100% = 57 uM dopamine signal. potentiation, % (concentration not given with the values). 360,000 tested, 0.23% active. AID 624464, 2012; active = potentiation of 50% or more; inconclusive = 30% to 50%; inactive = 30% or less;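 also: compound concentration not given in the record; tested on top of an EC20 dose of dopamine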
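PathHunter D2 cells, attached overnight at 37 deg C, received compound in DMSO plus dopamine at EC20 (50 nM final) for 90 min at 37 deg C. Beta-arrestin recruitment was read as luminescence after 1 h with detection reagent at ambient temperature.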
D2 ag: Beta-Arrestin HTS for Positive Allosteric Modulators of the Human D2 Dopamine Receptor: Agonists; activation, % (no concentration beside the values); D(2) dopamine receptor (Homo sapiens), P14416; AID 624465, 2012; DiscoveRx PathHunter D2 beta-arrestin, luminescence, 90 min; 100% = 57 uM dopamine signal; 360,000 tested, 0.084% active; in the data active = activation above about 40%; inconclusive = about 15% to 40%; inactive = below about 15%; also: compound concentration not given in the record; the text of the record calls up to 30% inactive
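Agonist mode: compounds alone added to overnight-plated D2 PathHunter cells for 90 min at 37 C, with 57 uM final dopamine (EC100) defining full response. Beta-arrestin recruitment detected by chemiluminescent reagent, read after 1 h at ambient temperature.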
Six1-Eya2 inh: qHTS Assay for Inhibitors of the Six1/Eya2 Interaction. AlphaScreen GST-Six1/His-Eya2 binding, biochemical; hits give low values; control for the full effect not named in the record. activity change, % (no concentration beside the values). Homeobox protein SIX1 (Homo sapiens) + Protein phosphatase EYA2 (Homo sapiens), …. 360,000 tested, 0.56% active; in the data active = activity change below about -65%; inconclusive = about -30% to -65%; inactive = above about -30%; also: % is scaled to controls: 0 for no effect and ±100 for the full control effect; compound concentration not given in the record
Target sequence (O00167 whole entry, looked up): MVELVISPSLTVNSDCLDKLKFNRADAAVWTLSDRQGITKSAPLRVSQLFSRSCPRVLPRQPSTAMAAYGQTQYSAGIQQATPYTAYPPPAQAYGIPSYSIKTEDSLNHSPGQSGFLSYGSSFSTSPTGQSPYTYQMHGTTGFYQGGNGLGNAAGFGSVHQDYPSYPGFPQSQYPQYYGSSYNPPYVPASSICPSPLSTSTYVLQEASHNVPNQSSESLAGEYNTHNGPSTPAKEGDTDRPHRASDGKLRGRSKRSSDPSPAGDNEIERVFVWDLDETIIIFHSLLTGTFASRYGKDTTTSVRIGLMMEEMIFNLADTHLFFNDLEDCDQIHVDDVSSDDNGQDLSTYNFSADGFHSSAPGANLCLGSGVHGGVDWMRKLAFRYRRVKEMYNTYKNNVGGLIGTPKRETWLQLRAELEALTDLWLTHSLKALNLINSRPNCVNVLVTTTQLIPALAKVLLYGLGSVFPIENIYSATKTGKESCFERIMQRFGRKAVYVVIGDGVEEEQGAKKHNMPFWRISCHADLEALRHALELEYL
Target sequence (Q15475 whole entry, looked up): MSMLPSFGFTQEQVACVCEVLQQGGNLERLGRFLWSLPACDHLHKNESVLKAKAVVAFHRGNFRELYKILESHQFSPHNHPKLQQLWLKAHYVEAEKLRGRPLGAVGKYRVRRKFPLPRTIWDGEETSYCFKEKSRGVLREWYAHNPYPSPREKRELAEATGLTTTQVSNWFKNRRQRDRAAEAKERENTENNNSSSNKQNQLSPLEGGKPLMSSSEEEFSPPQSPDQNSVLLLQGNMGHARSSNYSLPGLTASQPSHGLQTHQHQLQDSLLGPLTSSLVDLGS
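GST-Six1 + His-Eya2 (5X stock: 250/500 nM); Tris pH 8.0, 300 mM NaCl, 0.05% BSA, 0.02% Tween 20; GSH donor/Ni acceptor beads; 1 h 37 °C dark; AlphaScreen readout.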
CtBP-E1A inh: qHTS Assay for Inhibitors of the CtBP/E1A Interaction; CtBP / adenovirus E1A interaction (AlphaScreen); AlphaScreen GST-E1A/His-CtBP binding, 1536-well; hits give low values; control for the full effect not named in the record; activity change, % (test concentration not listed); 340,000 tested, 0.49% active; AID 651724, 2012; in the data active means activity change below about -65%; inconclusive means about -30% to -65%; inactive means above about -30%; also: % is scaled to controls: 0 for no effect and ±100 for the full control effect; compound concentration not given in the record
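AlphaScreen with 125 nM GST-E1A and 125 nM His-CtBP (5X stocks) in Tris pH 8.0, 300 mM NaCl, BSA, Tween 20, TCEP. Compounds preincubated 2 h at 37 deg C, then glutathione donor/nickel acceptor beads added for 1 h at 37 deg C in dark.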
TRPV1 potentiator: HTS Assay for Compounds that Act as Potentiators of the Vanilloid Receptor 1 | TRPV1-expressing cells, Fluo-8 calcium influx, capsaicin EC20 potentiation; host cell line not named in the record; control for the full effect not named in the record | potentiation, % at 8.33 µM | 320,000 tested, 0.02% active | AID 540277, 2011; active means potentiation above 80%; inconclusive means 30% to 80%; inactive means below 30%; also: 0% is about no effect
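Fluo-8 calcium influx in TRPV1-expressing cells, kinetic read (ex 480/em 520 nm). Compound added and read 3 min for agonist activity, followed by capsaicin at EC20 final and 2 min further read for enhancement.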
Sfp PPTase inh: qHTS Assay for Inhibitors of Bacillus subtilis Sfp phosphopantetheinyl transferase (PPTase) | 4'-phosphopantetheinyl transferase ffp (Bacillus subtilis), Q9F4F7 | Biochemical Sfp PPTase activity, qHTS | 310,000 tested, 3.5% active | Potency, µM, for the others: max response, negative = inhibition, actives largely listed as inhibitors | AID 1490, 2009; active = well fitted inhibition curve with a large enough effect; inconclusive = small, poorly fitted or top-dose-only effect, or another doubt; inactive = no such curve, though single readings can be large or run the other way;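 also: the enzyme is Sfp with the accession as filed and its product quenches rhodamine fluorescence; potency is read from the fitted curve at half-maximal effect; 0% = enzyme reaction without inhibitor and -100% = no enzyme wells; top concentration of the series not given in the record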
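Fluorescence-quenching assay: 15 nM Sfp-PPTase preincubated 15 min at room temperature with compound, then 5 uM rhodamine-CoA and 12.5 uM BHQ-2-labelled YbbR peptide added. Fluorescence (ex 525/em 598 nm) read at start and after 30 min; difference gives rate.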
Numbers without * were called inactive; ? = inconclusive; . = not tested or not shown; [ ] = remark or other dose.

Structure	PINK1 modulator	D2 PAM	D2 ag	Six1-Eya2 inh	CtBP-E1A inh	TRPV1 potentiator	Sfp PPTase inh
Cc1cc(-n2cc(Br)c(=O)[nH]c2=O)nc(-c2ccccc2)n1	-1.0%	-4	-2.4	-1	0	-1	19%
CC1CCCCN1S(=O)(=O)c1ccc2c(c1)oc(=O)n2CC(=O)O (stereo not given)	0.5%	-5	-4.3	-1	0	-3	-9%
COc1ccc(C(=S)NC2CCCCC2)cc1	0.7%	-14	-1.1	4	-3	-18	35µM*
COc1ccc(CN(C)CC(=O)NC2CCCc3ccccc32)cc1OC (stereo not given)	-1.2%	-30	-2.6	-5	-6	-1	28%
C/C(CC(=O)Nc1ccccn1)=N\NC(=O)C(=O)Nc1cccc(Cl)c1C	1.8%	-11	-3.2	-4	4	17	18%
CC(C)CSc1nsc(N)n1	0.1%[38.3 µM]	9	-2.6	4	-4	2	7%
Cn1c(=O)c2cc(S(=O)(=O)NCCC(=O)Nc3ccccc3F)ccc2n(C)c1=O	5.0%[38.3 µM]	-3	0.4	-17	-23	9	12%
CCCN1CCN(S(=O)(=O)c2ccc3c(c2)CC(C)N3C(=O)C2CC2)CC1 (stereo not given)	-0.4%	-12	-5.1	-1	0	-10	19%
O=C(OCc1ccccc1)N1CCC2CC1c1cc(-c3ccccc3)ccc12 (stereo not given)	3.7%	.	-2.2	13	11	.	.
Cc1cccc(C)c1OCC(O)Cn1nnc2ccccc21 (stereo not given)	-1.4%	-2	-3.9	27	3	-23	4%
O=C1OCCN1/N=C/c1ccc([N+](=O)[O-])o1	0.9%	.	.	2	-7	-5	?
COC(=O)[C@H](C)NC(=O)/C=C/c1ccc(OC)cc1	-0.4%	-5	-1.3	-6	3	-7	?
Nc1cc2cccnc2cc1Cl	-1.4%	-2	-2.5	-8	?	.	.
COCCn1c(SCC#N)nnc1-c1ccc2c(c1)OCO2	6.1%[38.3 µM]	-14	-2.3	0	1	-12	8%
CCC(C)c1ccc(O)c(NC(=O)c2ncn[nH]2)c1 (stereo not given)	1.7%[38.3 µM]	-22	-0.6	-14	10	.	7%

Next part
Structure	PINK1 modulator	D2 PAM	D2 ag	Six1-Eya2 inh	CtBP-E1A inh	TRPV1 potentiator	Sfp PPTase inh
O=C(c1cc([N+](=O)[O-])ccc1N1CCCC1)N1CCCCC1	-0.5%	2	-1.4	-6	9	3	20%
O=C(CSc1nnc(-c2cccnc2)n1-c1ccccc1)Nc1ccccn1	-1.1%	-3	-3.6	-2	2	2	4%
Cc1cc([N+](=O)[O-])nn1Cc1ccc(C(=O)N/N=C/c2ccc(O)cc2O)cc1	2.5%	-12	-4.4	-89*	?	3	25%
O=C(O)CCNc1nc(C(F)(F)F)nc2ccccc12	-1.5%	-5	3.3	3	2	-3	19%
O=C(NCc1ccco1)C1CC(=O)N(c2ccc(O)cc2)C1 (stereo not given)	0.8%	-10	-2.0	-5	6	-7	9%
COc1cccc(CNc2ccc3[nH]c(=O)[nH]c3c2)c1OCc1ccccc1	0.4%	7	3.7	-30	-4	-1	-23%
O=C(NCc1ccccc1)N1CCN(c2ccccc2)CC1	0.4%	1	7.1	-1	-9	-5	6%
O=c1c2ccccc2nnn1CSc1nnc(-c2ccc3c(c2)OCO3)o1	-0.8%	-6	3.9	7	4	5	7%
Nc1c(C(=O)N/N=C/c2ccc(F)cc2)oc2nc(-c3ccccc3)cc(-c3ccco3)c12	?	-4	3.3	-5	-8	-9	-8%
O=c1[nH]c(=S)c2c(n1-c1ccccc1)CCC2	.	-7	1.8	6	13	4	-5%
O=C(O[C@H]1[C@H](Cc2ccccc2)NS(=O)(=O)[C@H]2C[C@@H]3C=C[C@]12O3)c1ccc([N+](=O)[O-])cc1	-0.2%	0	1.7	-3	-1	-15	.
CCn1cc(C(=O)NCCc2ccccc2C)c(=O)c2ccc(C)nc21	4.6%	-1	6.2	8	-2	?	3%
O=C1CC(N(CCc2ccccc2)C(=S)Nc2cc(Cl)ccc2Cl)C(=O)N1c1c(Cl)cccc1Cl (stereo not given)	-1.0%	4	-0.9	-5	-2	-2	11%
O=C(Nc1ccc(CN2CCCCC2)cc1)c1sc2ccccc2c1Cl	8.3%	-6	1.5	4	-9	-5	8%
O=C(NCCCn1ccnc1)c1ccc(NS(=O)(=O)c2ccc(Cl)c(Cl)c2)cc1	-1.3%	-10	-2.2	-6	-6	2	.

Going on with the list.
Structure	PINK1 modulator	D2 PAM	D2 ag	Six1-Eya2 inh	CtBP-E1A inh	TRPV1 potentiator	Sfp PPTase inh
Cc1cc(C)n2nc(-c3ccccc3)cc2n1	-0.2%	4	-2.8	-4	-1	-3	-10%
Cc1cc(=O)[nH]c2ccc(Cc3ccccc3)cc12	13%	3	1.0	3	-3	.	.
COc1ccc(OCC(=O)N2CCN(C(=O)c3cccc4ccccc34)CC2)cc1	-0.3%	1	0.8	1	2	-17	15%
COc1ccc(/C=C/C(=O)OCC(=O)c2ccccc2F)cc1	2.3%	-1	0.6	10	7	.	.
COc1ccc(C(=O)N2CCN(C(=O)c3ccco3)CC2)cc1OC	4.8%[38.3 µM]	-9	-0.9	2	4	2	-4%
CCCOCCc1nnc(N)s1	0.0%	1	-8.0	0	6	-14	15%
COc1ccc(C(=O)NCc2ccccn2)cc1[N+](=O)[O-]	2.5%	4	-5.1	5	-1	3	21%
Cc1ccc(NC2CCCN(C(=O)c3snnc3C)C2)cc1C (stereo not given)	-0.3%	-5	-4.2	-3	5	-20	8%
CCCn1c(SCC(=O)c2cc(C)n(-c3cc(C)on3)c2C)n[nH]c1=O	0.3%	2	4.2	-2	-1	-23	.
Cc1onc(-c2c(F)cccc2Cl)c1C(=O)NCCN1CCNC1=O	0.3%	6	-2.2	-2	3	7	17%
CC(Oc1ccc(F)cc1)C(=O)Nc1cc(S(=O)(=O)N2CCOCC2)ccc1N1CCN(C)CC1 (stereo not given)	-0.5%	-11	2.5	6	2	-6	.
COc1cccc(S(=O)(=O)N(C)C[C@@H]2OCc3cn(nn3)CCCC(=O)N([C@H](C)CO)C[C@H]2C)c1	-1.4%	-25	-2.2	11	-23	.	.
Cc1cc(C)n(CCNC(=O)c2cc(COc3ccc(F)cc3Cl)on2)n1	4.1%	-2	2.5	5	1	-1	-13%
Cn1cc(C(=O)NC2C3CC4CC(C3)CC2C4)cn1 (stereo not given)	0.7%	11	1.0	-3	-15	2	-1%
O=C(Nc1ccccc1N1CCN(C(=O)c2ccccc2)CC1)c1ccccc1Cl	-0.9%	-10	-1.0	-1	.	?	-3%

More results:
Structure	PINK1 modulator	D2 PAM	D2 ag	Six1-Eya2 inh	CtBP-E1A inh	TRPV1 potentiator	Sfp PPTase inh
O=C(COC(=O)c1ccncc1)Nc1ccccc1	6.9%	-10	-3.7	2	0	-7	20%
O=C(CSC(=S)N1CCCCC1)c1ccccc1	-1.6%	-1	2.1	18	19	-15	-5%
CC(C)NCC(O)COc1ccc(Br)cc1 (stereo not given)	0.1%	-7	0.1	6	0	1	18%
CCNC(=O)C(=O)Nc1ccc([N+](=O)[O-])cc1	0.2%	-10	-1.4	-6	-1	5	8%
COc1ccccc1N1C(=O)c2ccc(C(=O)Nc3nccs3)cc2C1=O	3.2%	-3	0.9	-4	.	6	5%
CCN(CC)CCCNC(=O)/C(=C\c1cccn1C)NC(=O)c1cccs1	-0.8%	-7	-6.6	0	-6	2	-1%
CCC(C)Oc1ccc(/C=C/c2[nH]c(=O)[nH]c(=O)c2[N+](=O)[O-])cc1OC (stereo not given)	-0.8%	-4	-4.7	8	-7	1	1%
CCOC(=O)C1CCN(C/C=C/c2ccccc2)CC1	0.2%	-2	-3.2	0	-1	2	-4%
CCn1c(SCC(=O)N2c3ccccc3CCc3ccccc32)nc2c1c(=O)n(C)c(=O)n2C	-8.3%[38.3 µM]	0	2.5	5	-1	.	.
CC1CCCCN1C(=O)COc1ccc(NC(=O)c2ccco2)cc1 (stereo not given)	-8.2%[38.3 µM]	-2	0.5	4	0	11	11%
CCCCOc1ccc(-c2nc(=S)[nH][nH]2)cc1	-0.1%[38.3 µM]	-4	-1.0	-3	0	4	-6%
O=C(CSCC(=O)Nc1cccc([N+](=O)[O-])c1)Nc1ccccc1	-0.4%	-28	0.9	-1	6	4	8%
COc1ccc(NC(=O)COC(=O)c2ccc3ccccc3n2)cc1OC	11%	14	-2.7	0	4	.	.
COCCN(C(=O)c1cc(Cl)ccn1)c1c(N)n(Cc2ccccc2)c(=O)[nH]c1=O	2.0%	-12	-1.6	23	0	-2	.
CC12CCC(=O)N1C(C(=O)OCC(=O)Nc1cccc(Br)c1)CS2 (stereo not given)	4.0%	-2	0.8	-10	-1	1	1%
COc1ccc(-c2cc(C(=O)N/N=C/c3cccnc3)c3cc(C)cc(C)c3n2)cc1	0.5%	-8	-2.1	14	-1	-2	-2%

Screening data as filed in PubChem BioAssay.
